High-throughput results: PubChem, several laboratories
Bfl-1 A1 inh – inhibitors of the anti-apoptotic protein A1, read as caspase activation; hit rate 0.066% among 330,000; caspase activation, % (no concentration beside the values); MEF A1-2A-BIM cells, Caspase-Glo 3/7 luminescence, 3 h; percent of clofoctol response, vehicle zero;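 active means over half of replicate activation scores above 10%, or exactly half above 10 with the replicate mean above 10; inconclusive means replicate mean below 10 yet half the replicates above 10; inactive means over half of replicates below 10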;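 further: wells of about 30 µL received 50 nL stock; many hits fall short of the cut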
AF4-AF9 inh – inhibitors of human MLL-AF4/AF9 interaction; AlphaScreen, biotin-AF4 peptide binding to FLAG-AF9; inhibition, % at 10 µM; hit rate 0.47% among 350,000; AID 651704;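 active means every replicate reaching a set inhibition limit, whatever the replicate mean, cut at about 25% in these data; inconclusive means mean inhibition reaches that limit but some replicates miss it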;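 further: 0% = plate neutral control median and 100% = total signal loss; the record names both 10 and 1 µM as test concentration; the first replicate is given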
Target sequence (P42568 whole entry, looked up): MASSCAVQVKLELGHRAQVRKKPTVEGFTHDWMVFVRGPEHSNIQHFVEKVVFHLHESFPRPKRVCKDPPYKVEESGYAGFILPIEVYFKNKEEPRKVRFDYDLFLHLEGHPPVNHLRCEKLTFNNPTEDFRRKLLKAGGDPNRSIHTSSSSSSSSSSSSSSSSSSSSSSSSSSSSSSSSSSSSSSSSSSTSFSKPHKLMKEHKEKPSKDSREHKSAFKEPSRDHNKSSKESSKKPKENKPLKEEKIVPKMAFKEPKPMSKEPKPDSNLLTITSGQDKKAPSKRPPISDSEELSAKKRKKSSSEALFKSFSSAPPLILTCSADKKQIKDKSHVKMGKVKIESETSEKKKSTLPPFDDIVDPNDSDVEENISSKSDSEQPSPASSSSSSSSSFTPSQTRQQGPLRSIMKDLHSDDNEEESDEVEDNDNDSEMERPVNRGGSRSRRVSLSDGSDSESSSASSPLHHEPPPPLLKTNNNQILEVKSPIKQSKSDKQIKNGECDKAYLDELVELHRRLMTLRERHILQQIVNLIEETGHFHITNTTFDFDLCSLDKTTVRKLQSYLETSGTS
rRNA inh HTS – selective bacterial rRNA inhibition in E. coli; hit rate 1.6% among 350,000; E. coli WT GFP vs humanized-ribosome RFP mutants, fluorescence, 24 h; hits give low values; DMSO median 0, no signal -100; GFP signal change (wild-type ribosome), % (test concentration not listed);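 active means significant combined selectivity score with lowered wild-type GFP, culture density cut under 30%, mutant RFP and density less affected; inactive means any of these conditions unmet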; further: one replicate is shown; some compounds called inactive have numbers as strong as hits
T cruzi repl – blocks replication of Trypanosoma cruzi. hit rate 1.4% among 300,000. AID 1885. T. cruzi beta-gal in NIH3T3, luminescence, 90 h. inhibition, % (no concentration beside the values);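 active means mean inhibition across valid replicates above about 55%, limit read from the data; inconclusive means mean below that limit but half or more replicates reach it; inactive means mean below it, under half of replicates reach it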;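 further: signal also drops with host cell toxicity which is not excluded here; 0% = plate median of DMSO wells and 100% = zero luminescence signal; higher percent means less beta-gal luminescence so fewer parasites; stock transfer was 50 nL into about 50 µL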
Beta apoptosis – blocks beta cell apoptosis. INS-1E cytokine-induced death, ATP luminescence, 48 h; percent of positive-control rescue, neutral wells zero. protection from apoptosis, % (concentration not given with the values). hit rate 0.8% among 300,000. AID 435005;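 active means all replicates at 75% or more, or half of them and the mean; inconclusive means half reach 75% but not the mean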;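 further: 0% = cytokine-treated negative control wells and 100% = positive control rescue; higher means more ATP so stronger rescue from cytokine killing; wells of about 40 µL received 100 nL stock; the first replicate is given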
UCH37 inh – human UCH37 deubiquitinating enzyme inhibition | hit rate 0.33% among 330,000 | inhibition, % (concentration not given with the values) | Q9Y5K5 | purified proteasome/UCH37, Ub-AMC cleavage fluorescence;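 active means mean of two replicates above 20%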;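 further: 0% = compound-free wells with enzyme and 100% = wells lacking proteasome; stock transfer was 100 nL into about 20 µL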
Target sequence (Q9Y5K5 whole entry, looked up): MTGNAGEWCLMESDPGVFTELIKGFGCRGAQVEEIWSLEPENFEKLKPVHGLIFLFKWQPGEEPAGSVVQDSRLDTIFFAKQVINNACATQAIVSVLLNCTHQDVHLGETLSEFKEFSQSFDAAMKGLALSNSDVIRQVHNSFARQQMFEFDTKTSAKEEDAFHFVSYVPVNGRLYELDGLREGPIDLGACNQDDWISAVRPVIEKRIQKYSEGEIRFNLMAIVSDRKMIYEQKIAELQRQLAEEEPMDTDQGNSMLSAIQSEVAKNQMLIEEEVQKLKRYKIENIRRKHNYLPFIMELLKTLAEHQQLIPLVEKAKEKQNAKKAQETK
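Material: human UCH37 enzyme supplied as purified proteasome complex / Amount: 0.15 nM proteasome as dispensed / Buffer or medium: pH 7.4 Tris-HCl (50 mM) with ovalbumin, ATP-MgCl2, DTT / Times: preincubation 30 min, reaction 25 min, room temperature / Technique: AMC fluorescence from Ub-AMC cleavage, excitation 355 nm, emission 460 nm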
FGF22 binding – binders of recombinant human FGF22 by thermal shift. SYPRO orange fluorescence; percent of sucrose octasulfate shift, DMSO zero. Q9HCT0. AID 651658. hit rate 1.5% among 340,000. calls only at 9.99 µM;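 active means melting point raised past a set limit in the mean and every replicate; inconclusive means no clear call; three in four hits are not shown here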
Target sequence (Q9HCT0 whole entry, looked up): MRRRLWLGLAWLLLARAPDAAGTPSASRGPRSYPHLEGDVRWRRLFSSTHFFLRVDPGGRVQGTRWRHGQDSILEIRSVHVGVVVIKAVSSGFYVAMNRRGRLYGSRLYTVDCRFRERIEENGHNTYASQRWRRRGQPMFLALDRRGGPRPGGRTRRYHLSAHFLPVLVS
E coli growth – blocks Escherichia coli growth | OD600 absorbance (concentration not given with the values) | AID 1053175 | OD600, 23 h; hits give low values | hit rate 0.21% among 330,000;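 active means OD600 absorbance below the run mean of sample wells minus 3.6 SD, in any replicate, cut at about 0.56 in these data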;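 further: stock transfer was 300 nL into about 60 µL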
rRNA inh HTS OD600 – second read-out of rRNA inh HTS, no call of its own (marks repeat the call); OD600 change, %; measured here: OD600 growth;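 optical density of the mix in the first replicate; 0 = DMSO median and -100 = no signal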
rRNA inh HTS RFP – recorded beside rRNA inh HTS, whose call it bears; RFP signal change, %; measured here: RFP humanized mutant strains;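 first replicate; 0 = DMSO median and -100 = no signal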
An asterisk follows results filed as active; i = inactive; ? = inconclusive; / = not tested or not shown. The list is partial. The share of hits here may be higher or lower than overall.

nr	smiles	FGF22 binding	rRNA inh HTS	rRNA inh HTS OD600	UCH37 inh	AF4-AF9 inh	rRNA inh HTS RFP	T cruzi repl	Beta apoptosis	Bfl-1 A1 inh	E coli growth
1	COc1cccc2cc(-c3nnc(SCC(=O)NCc4ccccc4)n3C)oc12	/	-1	3	-1.8	/	0.7	-6	-4	0.1	0.73
2	Cc1nc2sc(C)c(C)c2c(=O)o1	/	/	/	6.3	/	/	-6	-9	-0.4	0.71
3	CC(=O)c1cc2c(cc1NC(=O)CCC1CCCC1)OCO2	i	-22	-22	-81	-4.8	-14	12	7	0.7	0.68
4	COc1cc(C(=S)NC2CCCCC2)ccc1O	/	/	/	3.5	/	/	-1	-3	0.6	0.6
5	Cc1onc(-c2c(Cl)cccc2Cl)c1C(=O)NCCN1CCOCC1	/	/	/	4.4	/	/	15	-15	0.8	0.7
6	Cc1cc(NC(=O)CN2CCCCC2C)nc2c1c(=O)oc1ccccc12 (centres undefined)	/	/	/	1.4	/	/	6	/	1.9	0.75
7	COCCCNC(=S)N1CCCN(c2nc3c(C)c(C)ccc3cc2C#N)CC1	i	14	7	-29	0.2	3.7	19	7	0.4	0.66
8	COc1ccccc1COC(=O)C(NC(=O)c1ccc(C)cc1)C(C)C (centres undefined)	i	-14	-17	-0.7	9.7	1.7	/	/	/	0.71
9	Cc1ccc(NC(=O)C(C)N2CCOCC2)c(C(=O)c2ccccc2)c1 (centres undefined)	/	/	/	-0.7	/	/	-3	2	0.0	0.67
10	O=C(CCN=C1NS(=O)(=O)c2ccccc21)NCc1ccccc1F	i	4	12	1.5	-1.8	-1.6	/	-4	0.1	0.7
11	COc1cccc(NC(=O)N2CCc3ccccc3C2)c1	i	-1	12	1.7	-1.8	3.5	0	/	-7.9	0.69
12	O=c1cc(CSc2ccc([N+](=O)[O-])cc2)nc2sccn12	i	5	7	5.6	0.0	0.7	-21	-5	-0.7	0.68
13	CN(CC1CCCO1)S(=O)(=O)c1ccc(C(=O)NCc2ccccc2)cc1 (centres undefined)	i	0	5	-0.8	0.5	-1.6	-29	1	?	0.65
14	CCC(C)c1ccccc1O (centres undefined)	i	0	2	-0.6	/	-0.1	/	-4	0.2	0.65
15	COc1cccc(NC(=O)c2ccccc2-c2nc(-c3cccc(C)c3)no2)c1	/	/	/	4.6	/	/	/	0	-0.2	0.75
16	COc1cc(/C=C2/C(=O)NN(c3cccc(Cl)c3)C2=O)cc(Br)c1O	/	-14	-36	/	1.8	11	-1	/	0.3	/
17	COc1ccc(CCN(C)CCC(=O)Nc2ccc(C)cc2)cc1OC	/	/	/	1.1	/	/	59*	3	0.5	0.67
18	O=C(NNS(=O)(=O)c1ccc(F)cc1)C1CC(c2cccnc2)=NO1 (centres undefined)	i	14	5	0.6	-1.1	0.4	-6	1	0.4	0.75
19	Oc1cc2c(cc1CN1CCc3ccccc3C1)OCO2	i	10	4	1.9	7.3	2.9	-12	-9	-0.6	0.71
20	Cc1cc(C(=O)Nc2nnc(C3CCCCC3)s2)cs1	/	/	/	1.6	/	/	-2	8	-0.5	0.7
21	CCc1nnc(NS(=O)(=O)c2ccc(NC(=O)CCC(=O)OC)cc2)s1	i	5	1	-0.9	-0.9	-0.5	4	-11	0.3	0.68
22	O=C(O)Cc1ccc2sc(-c3ccccc3)nc2c1	/	/	/	0.9	/	/	-7	12	0.0	0.66
23	Cc1cc2cc(CN(Cc3cccs3)C(=S)NCc3ccco3)c(=O)[nH]c2cc1C	/	/	/	-3.0	/	/	19	6	-0.2	0.7
24	Cc1ccc(OCC(=O)Nc2nc(C)c(Cl)cc2Cl)c([N+](=O)[O-])n1	i	9	19	-0.1	-2.6	1.6	/	-1	-2.5	0.66
25	Cc1ccc(CCNC(=O)CN(C)S(=O)(=O)c2cnc[nH]2)cc1	/	/	/	-3.1	/	/	-9	-4	0.4	0.67

The closing six compounds of the part before lead into the next:
nr	smiles	FGF22 binding	rRNA inh HTS	rRNA inh HTS OD600	UCH37 inh	AF4-AF9 inh	rRNA inh HTS RFP	T cruzi repl	Beta apoptosis	Bfl-1 A1 inh	E coli growth
20	Cc1cc(C(=O)Nc2nnc(C3CCCCC3)s2)cs1	/	/	/	1.6	/	/	-2	8	-0.5	0.7
21	CCc1nnc(NS(=O)(=O)c2ccc(NC(=O)CCC(=O)OC)cc2)s1	i	5	1	-0.9	-0.9	-0.5	4	-11	0.3	0.68
22	O=C(O)Cc1ccc2sc(-c3ccccc3)nc2c1	/	/	/	0.9	/	/	-7	12	0.0	0.66
23	Cc1cc2cc(CN(Cc3cccs3)C(=S)NCc3ccco3)c(=O)[nH]c2cc1C	/	/	/	-3.0	/	/	19	6	-0.2	0.7
24	Cc1ccc(OCC(=O)Nc2nc(C)c(Cl)cc2Cl)c([N+](=O)[O-])n1	i	9	19	-0.1	-2.6	1.6	/	-1	-2.5	0.66
25	Cc1ccc(CCNC(=O)CN(C)S(=O)(=O)c2cnc[nH]2)cc1	/	/	/	-3.1	/	/	-9	-4	0.4	0.67
26	CCOC(=O)c1cc2sc(C)cc2n1CC(=O)N(CC)CC	/	/	/	0.6	/	/	-9	-7	0.3	0.72
27	Cc1nn(-c2ccc(N3CCCCC3)nn2)c(C)c1CCC(=O)Nc1ccc(F)c(F)c1	i	-23	-43	2.3	0.6	-19	-3	4	-0.8	0.62
28	Cc1cc(C(C)(C)C)cc(C)c1COC(=O)CN1C(=O)NC2(CCCC2)C1=O	i	-4	-5	-0.3	-0.9	2.0	/	4	-0.1	0.73
29	C[C@H](NC(=O)[C@H]1N2C(=O)c3ccccc3C2SC1(C)C)C(=O)N1CCN(C)CC1 (some centres undefined)	i	8	14	4.0	1.0	0.2	-18	0	0.0	0.66
30	CC(=O)N/C(=C\c1ccccc1Cl)C(=O)O	/	/	/	1.4	/	/	-3	2	-0.4	0.77
31	Cc1cc(Br)ccc1NC(=O)CN1C(=O)CCC1=O	/	/	/	2.3	/	/	-10	-1	0.7	0.7
32	Fc1cc(Br)ccc1NC(=S)Nc1cccnc1	i	-2	12	4.9	-2.5	9.1	-15	0	-0.6	0.66
33	Fc1ccc(C(CCNCc2cccs2)c2ccco2)cc1 (centres undefined)	i	-16	-13	-0.7	3.0	1.0	-4	-10	0.3	0.66
34	Cn1c(=O)c2c(SCC(=O)Nc3ccc4c(c3)OCCO4)nc(CC(C)(C)C)nc2n(C)c1=O	i	6	0	0.8	12	-1.3	16	9	/	0.75
35	Clc1ccc(-n2ncc3c(NCC4CCCO4)ncnc32)cc1 (centres undefined)	i	-17	-28	1.7	-1.8	-2.5	-20	-3	-1.9	0.72
36	Cc1cc(SC#N)cc(C)c1NC(=O)CCl	/	/	/	9.2	/	/	-11	1	1.3	0.65
37	CCN(CC)S(=O)(=O)c1ccc2c(c1)N(CC(=O)Nc1cccnc1Cl)C(=O)CO2	i	13	-4	2.0	0.1	2.6	2	4	0.2	0.66
38	COc1ccc(Cc2noc(CN3CCCC(OCc4ccccn4)C3)n2)cc1OC (centres undefined)	i	6	1	0.3	1.9	-0.2	2	0	0.3	0.71
39	O=C(Cc1cccc(C(F)(F)F)c1)NCC(=O)Nc1cc(Cl)ccc1Cl	i	2	8	2.6	-11	-0.9	11	2	0.2	0.7
40	Nc1nnc(-c2cn(-c3ccccc3)nc2-c2ccc(Cl)cc2)o1	i	6	2	3.2	/	0.9	-2	-1	0.1	0.71
41	COCC(=O)OC/C(O)=C(\C#N)c1nc2ccccc2[nH]1	i	15	9	1.3	8.3	21	8	4	-0.2	0.64
42	O=C(c1cccc(S(=O)(=O)N2CCN(c3ccccc3)CC2)c1)N1CCN(c2ccccc2O)CC1	i	4	4	3.0	1.5	4.1	11	2	-0.3	0.69
43	Cc1cc(OCC(=O)Nc2ccc(Br)cc2)cc2c1C(=O)CC(C)(C)O2	i	-19	-23	3.9	-4.0	-0.7	7	-2	0.2	0.7
44	Cc1cccc(NC(=O)NC2CCCc3ccccc32)c1 (centres undefined)	i	5	1	-0.2	-1.3	-1.2	18	0	-0.8	0.63
45	CCN(Cc1ccccc1)C(=O)c1c(-c2ccccc2Cl)noc1C	i	-30	-36	2.0	5.7	-1.1	-5	-20	-0.2	0.68
46	Cc1ccc(NC(=O)c2cc([N+](=O)[O-])ccc2Cl)c(O)c1	i	0	3	-1.2	1.6	-0.3	-7	7	-0.6	0.64
47	Cc1ccc(C(=O)C2CCN(CC(=O)NC3CCCCC3)CC2)cc1	/	/	/	0.8	/	/	20	-3	1.1	0.68
48	COc1ccccc1N1CCN(C(=O)CSc2nc(C)c(C)c(=O)[nH]2)CC1	i	6	1	2.8	-1.4	0.3	-9	3	0.0	0.69
49	O=C(O)c1cccc(S(=O)(=O)N(Cc2ccccc2)c2ccccc2Cl)c1	i	-28	-37	4.7	2.8	-10	-3	1	0.4	0.7
50	OCCN(Cc1ccccc1)Cc1cccc(C(F)(F)F)c1	/	/	/	4.1	/	/	/	1	-0.4	0.66

Limited to Bfl-1 A1 inh (three entries from above):
# | Compound | Bfl-1 A1 inh
36 | Cc1cc(SC#N)cc(C)c1NC(=O)CCl | 1.3
37 | CCN(CC)S(=O)(=O)c1ccc2c(c1)N(CC(=O)Nc1cccnc1Cl)C(=O)CO2 | 0.2
38 | COc1ccc(Cc2noc(CN3CCCC(OCc4ccccn4)C3)n2)cc1OC (centres undefined) | 0.3

Entries by screen from the entries so far:
Nos. 26 to 34 in rRNA inh HTS read /, -23, -4, 8, /, /, -2, -16, 6
Nos. 26 to 34 in rRNA inh HTS OD600 read /, -43, -5, 14, /, /, 12, -13, 0
Nos. 26 to 34 in rRNA inh HTS RFP read /, -19, 2.0, 0.2, /, /, 9.1, 1.0, -1.3

(more compounds)
nr	smiles	FGF22 binding	rRNA inh HTS	rRNA inh HTS OD600	UCH37 inh	AF4-AF9 inh	rRNA inh HTS RFP	T cruzi repl	Beta apoptosis	Bfl-1 A1 inh	E coli growth
51	CCCCP(=O)(CCCC)Cc1ccccc1O	/	/	/	1.0	/	/	8	/	0.6	0.7
52	Cc1ccc(C)c(NC(=S)Nc2cccc3cnccc23)c1	i	7	-8	6.6	0.5	-12	12	/	-0.7	0.67
53	CC[C@]12c3[nH]c4ccc(Cl)cc4c3CCN1C(=O)[C@@H](CC(=O)NCCC1=CCCCC1)C[C@@H]2C(=O)N1CCN(C(=O)c2ccco2)CC1	i	-2	0	1.0	0.4	-2.2	/	/	/	0.71
54	Cc1sc2ncnc(SCc3ccc(C(=O)O)cc3)c2c1C	i	8	-2	-1.1	-2.4	1.0	1	2	-0.9	0.7
